# FGF22 binding – binders of recombinant human FGF22 by thermal shift | 340,000 tested, 1.5% active | Q9HCT0 | SYPRO orange fluorescence; percent of sucrose octasulfate shift, DMSO zero | calls only at 9.99 µM | AID 651658;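 active = melting point raised past a set limit in the mean and every replicate; three in four hits are not shown here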
# Target sequence (Q9HCT0 whole entry, looked up): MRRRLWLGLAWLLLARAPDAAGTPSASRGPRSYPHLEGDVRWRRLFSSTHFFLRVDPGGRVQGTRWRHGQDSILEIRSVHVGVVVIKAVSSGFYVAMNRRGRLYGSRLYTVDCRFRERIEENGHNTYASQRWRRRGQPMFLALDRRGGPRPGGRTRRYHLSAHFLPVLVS
# Ecoli rRNA inh – inhibitors of bacterial rRNA selective over humanized ribosomes; GFP signal change (wild-type ribosome), % (concentration not given with the values); E. coli WT GFP vs humanized-ribosome RFP mutants, fluorescence, 24 h; active compounds read low; DMSO median 0, no signal -100; AID 720706; 350,000 tested, 1.6% active;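 active = significant combined selectivity score with lowered wild-type GFP, culture density cut under 30%, mutant RFP and density less affected; inactive = any of these conditions unmet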; also: one replicate is shown; some compounds called inactive have numbers as strong as hits
# Ecoli rRNA inh OD600 – second read-out of Ecoli rRNA inh, no call of its own (marks repeat the call); OD600 change, %; measured here: OD600 growth;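 optical density of the mix in the first replicate; 0 = DMSO median and -100 = no signal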
# Ecoli rRNA inh RFP – also measured in Ecoli rRNA inh; calls as there; RFP signal change, %; measured here: RFP humanized mutant strains;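 first replicate; 0 = DMSO median and -100 = no signal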
# An asterisk follows results filed as active; i = inactive; + = active, no number; & = joins results of further samples.
# The opening four records, to show the layout:
# Below each compound: FGF22 binding, Ecoli rRNA inh, Ecoli rRNA inh OD600, Ecoli rRNA inh RFP
> CCCNC(=O)N[C@H]1CC[C@H](CCn2cc(C3CC3)nn2)O[C@H]1CO
    i, -2.2, 5.6, -3.0
> CC(C)NC(=O)Nc1cccc2c1O[C@@H](CN(C)C)[C@@H](C)CN([C@@H](C)CO)C2=O
    i, 0.4, 6.0, 0.9
> C[C@@H]1CN([C@H](C)CO)C(=O)c2cc(NS(=O)(=O)c3ccc(Cl)cc3)ccc2O[C@@H](C)CCCCO[C@H]1CN(C)C(=O)Nc1ccccc1
    i, -0.8, -6.7, -0.2
> O=C(C[C@@H]1CC[C@H]2[C@@H](COC[C@H](O)CN2CC2CCCCC2)O1)NCc1ccc(F)cc1
    i, 3.4, 0.5, -5.9

# All compounds of this part, previewed entries included:
# Below each compound: FGF22 binding, Ecoli rRNA inh, Ecoli rRNA inh OD600, Ecoli rRNA inh RFP
> CCCNC(=O)N[C@H]1CC[C@H](CCn2cc(C3CC3)nn2)O[C@H]1CO
    i, -2.2, 5.6, -3.0
> CC(C)NC(=O)Nc1cccc2c1O[C@@H](CN(C)C)[C@@H](C)CN([C@@H](C)CO)C2=O
    i, 0.4, 6.0, 0.9
> C[C@@H]1CN([C@H](C)CO)C(=O)c2cc(NS(=O)(=O)c3ccc(Cl)cc3)ccc2O[C@@H](C)CCCCO[C@H]1CN(C)C(=O)Nc1ccccc1
    i, -0.8, -6.7, -0.2
> O=C(C[C@@H]1CC[C@H]2[C@@H](COC[C@H](O)CN2CC2CCCCC2)O1)NCc1ccc(F)cc1
    i, 3.4, 0.5, -5.9
> Cc1ccc(S(=O)(=O)Nc2ccc3c(c2)C(=O)N([C@H](C)CO)C[C@@H](C)[C@@H](CN(C)CC2CCCCC2)O3)cc1
    i, 4.5, 0.1, 0.4
> C[C@H](CO)N1C[C@H](C)[C@@H](CN(C)C(=O)Nc2ccc(F)cc2)Oc2ncc(C#Cc3ccc(F)cc3)cc2C1=O
    i, -3.9, -23.2, 9.7
> C[C@@H]1CN([C@@H](C)CO)S(=O)(=O)c2ccc(-c3ccncc3)cc2O[C@H]1CN(C)Cc1ccccc1
    i, -40.5, -62.0, -4.7
> O=C(NCCc1ccncc1)[C@@H]1[C@@H](CO)[C@@H]2Cn3c(ccc(-c4ccncc4)c3=O)[C@@H]2N1C(=O)C1CC1
    i, 3.9, 3.5, -0.5
> COc1cccc(-c2ccc([C@H]3[C@H]4CN(Cc5cncnc5)CCCCN4[C@H]3CO)cc2)c1
    i, 4.7, 11.9, -0.7
> OC[C@@H]1[C@@H](c2ccc(-c3ccccc3F)cc2)[C@H]2CN(Cc3ccncc3)CCCCN12
    i, -2.4, 3.1, 1.8
> COc1ccc(CN(C)C[C@@H]2OCCCC[C@@H](C)Oc3ccc(NC(=O)Cc4ccccc4)cc3C(=O)N([C@@H](C)CO)C[C@@H]2C)cc1
    i, 2.4, -12.1, -2.4
> C[C@@H]1CN([C@H](C)CO)C(=O)c2cccc(NC(=O)c3ccncc3)c2O[C@H]1CN(C)Cc1ccccc1
    i, 1.9, -6.3, -1.2
> C[C@H]1CN([C@@H](C)CO)S(=O)(=O)c2ccc(-c3ccncc3)cc2O[C@@H]1CN(C)C(=O)CN(C)C
    i, 1.4, 4.0, 0.4
> CO[C@@H]1CN(C)C(=O)c2ccc(NS(=O)(=O)c3ccc(Oc4ccccc4)cc3)cc2OC[C@H](C)NC[C@@H]1C
    +, 1.7, 2.7, 8.0
> CCC(=O)N1CC[C@@H]2[C@@H](CO)Nc3ccc(-c4ccc(OC)cc4)cc3[C@@H]21
    i, -1.6, -4.3, -4.0
> COc1ccc(NC(=O)Nc2ccc3c(c2)C(=O)N([C@H](C)CO)C[C@@H](C)[C@H](CN(C)Cc2ccc4c(c2)OCO4)OCCCC[C@H](C)O3)cc1
    i, -4.6, -49.2, 31.6
> CO[C@@H]1CN(C)C(=O)c2ccc(NC(=O)Nc3ccc4c(c3)OCO4)cc2OC[C@@H](C)N(C(C)=O)C[C@H]1C
    i, 3.5, -3.6, 0.8
> O=S(=O)(c1cccc(F)c1)N1CC[C@@H]2[C@@H](CO)Nc3ccc(-c4cccc(F)c4)cc3[C@@H]21
    i, -16.9, -35.5, 34.0
> C[C@H](CO)N1C[C@H](C)[C@H](CN(C)C(=O)CN(C)C)Oc2ncc(-c3ccc(F)cc3)cc2C1=O
    i, 2.2, -5.8, -1.8
> CC(C)C(=O)Nc1ccc2c(c1)C(=O)N(C)[C@H]1CC[C@H](CC(=O)NCc3cccc(F)c3)O[C@H]1CO2
    i, -0.1, 0.2, -2.7
> CO[C@@H]1CN(C)C(=O)c2ccc(NC(=O)C3CC3)cc2OC[C@@H](C)N(Cc2ccncc2)C[C@H]1C
    i, -2.5, -2.4, -0.9
> C[C@H](CO)N1C[C@H](C)[C@@H](CN(C)S(=O)(=O)c2ccc(F)cc2)Oc2c(NC(=O)Nc3cccc4ccccc34)cccc2C1=O
    i, -3.4, -11.1, -3.0
> CCC(=O)N1CC[C@@H]2[C@H]1c1cc(-c3ccc(OC)cc3)ccc1N[C@@H]2CO
    i, -5.6, -1.9, 2.7
> Cc1ccc(S(=O)(=O)Nc2cccc3c2O[C@H](CN(C)C)[C@H](C)CN([C@H](C)CO)C3=O)cc1
    i, 5.2, 6.3, -1.8
> C[C@@H](NC(=O)C[C@H]1C=C[C@@H](NC(=O)C2CCOCC2)[C@@H](CO)O1)c1ccccc1
    i, 2.3, 2.7, 1.1
> C[C@@H]1CN([C@H](C)CO)S(=O)(=O)c2ccc(-c3ccc(C(=O)N(C)C)cc3)cc2O[C@@H]1CN(C)C(=O)C1CCCCC1
    i, -5.3, 11.3, -5.3
> CO[C@H](CN(C)Cc1cc(F)ccc1F)[C@H](C)CN([C@H](C)CO)S(=O)(=O)c1ccc(F)cc1
    i, -3.8, 0.7, -1.3
> CC(C)NC(=O)Nc1ccc2c(c1)C(=O)N([C@@H](C)CO)C[C@H](C)[C@H](CN(C)S(=O)(=O)c1ccc(Cl)cc1)OCCCC[C@@H](C)O2
    i, -0.2, -12.0, -3.4
> C[C@@H]1CN([C@@H](C)CO)C(=O)c2cccc(NC(=O)C3CCOCC3)c2O[C@H]1CN(C)S(=O)(=O)c1ccc(F)cc1
    i, 4.9, 19.4, -1.1
> CN1CCN(C(=O)C[C@H]2CC[C@@H](NS(=O)(=O)c3cccc(F)c3)[C@H](CO)O2)CC1
    i, 3.5, 4.6, -1.5
> O=C(NCc1cc(F)cc(F)c1)[C@H]1[C@H](CO)[C@H]2Cn3c(cccc3=O)[C@@H]1N2C(=O)Cc1ccccn1
    i, 1.1, 5.8, -1.0
> CC(C)COC(=O)N(C)C[C@@H]1OCc2ccccc2-c2c(n(C)c3ccccc23)C(=O)N([C@@H](C)CO)C[C@H]1C
    i, -3.3, -4.0, -0.5
> C[C@@H]1CCCCO[C@@H](CN(C)S(C)(=O)=O)[C@H](C)CN([C@@H](C)CO)C(=O)c2cc(NC(=O)Nc3ccc4c(c3)OCO4)ccc2O1
    i, -0.4, 2.2, 0.8
> COc1cccc(S(=O)(=O)N2CCCCN3[C@H](C2)[C@@H](c2ccc(C#CC(C)C)cc2)[C@@H]3CO)c1
    i, 6.4, 1.8, -3.6
> CN(C)CC(=O)Nc1ccc2c(c1)[C@H]1C[C@@H](CC(=O)N3CCOCC3)O[C@@H](CO)[C@H]1O2
    i, 2.0, 7.0, -1.1
> O=C(Nc1ccc2c(c1)[C@@H]1C[C@@H](CC(=O)N3CCOCC3)O[C@H](CO)[C@@H]1O2)c1ccc2c(c1)OCO2
    i, 1.4, -1.2, -2.8
> Cc1noc(C)c1S(=O)(=O)Nc1ccc2c(c1)C(=O)N([C@H](C)CO)C[C@H](C)[C@@H](CN(C)S(=O)(=O)c1cn(C)cn1)OCCCC[C@@H](C)O2
    i, 7.1, 15.6, -3.1
> CNC(=O)C[C@H]1CC[C@@H]2[C@H](COc3ccc(NS(=O)(=O)c4cccc(F)c4)cc3C(=O)N2C)O1
    i, 3.0, 7.2, -1.9
> C[C@@H]1CN([C@H](C)CO)C(=O)c2cc(NC(=O)CCC(F)(F)F)ccc2O[C@H]1CN(C)S(=O)(=O)c1cccs1
    i, 1.5, 2.3, 0.0
> COc1ccc(NC(=O)Nc2ccc3c(c2)C(=O)N([C@@H](C)CO)C[C@@H](C)[C@H](CN(C)S(C)(=O)=O)OCCCC[C@@H](C)O3)cc1
    i, -2.4, 3.7, -1.0
> O=C(C[C@H]1C=C[C@@H](NS(=O)(=O)c2ccc(F)cc2)[C@@H](CO)O1)N1CCc2ccccc2C1
    i, -3.3, -5.4, 3.2
> C[C@H]1CN([C@@H](C)CO)C(=O)c2cc(NS(=O)(=O)c3ccc(F)cc3)ccc2O[C@@H]1CN(C)CC1CCCCC1
    i, 2.7, 2.5, -1.5
> CCNC(=O)C[C@H]1CC[C@H](NS(=O)(=O)c2ccc(C)cc2)[C@@H](CO)O1
    i, 6.2, 7.8, -4.1
> COCC(=O)N(C)C[C@H]1Oc2ncc(C3=CCCCC3)cc2C(=O)N([C@@H](C)CO)C[C@H]1C
    i, -0.9, 10.0, -4.3
> C[C@H]1CN([C@@H](C)CO)C(=O)c2cc(NS(=O)(=O)c3ccccc3)ccc2O[C@H]1CN(C)C(=O)Nc1ccc(F)cc1
    i, 2.1, 7.2, 2.6
> C/C=C/c1ccc([C@H]2[C@@H](C#N)N(C(=O)CN3CCOCC3)[C@H]2CO)cc1
    i, 1.9, -1.3, -1.2
> CN(C)C(=O)C[C@@H]1C[C@@H]2c3cc(NS(=O)(=O)c4ccc(F)cc4)ccc3O[C@@H]2[C@H](CO)O1
    i, 2.5, -8.6, 0.6
> CCN1[C@@H]2c3ccc(C4=CCCCC4)c(=O)n3C[C@@H]2[C@@H](CO)[C@@H]1C(=O)NCc1cccc(OC)c1
    i, -10.9, -20.7, 0.3
> CC=Cc1ccc2n(c1=O)C[C@H]1[C@H](CO)[C@@H](C(=O)Nc3nccs3)N(Cc3cc(F)ccc3F)[C@@H]21 (mixture of isomers)
    i, -5.8, -5.3, 2.4
> COc1ccc(C#Cc2ccc3c(c2)[C@H]2[C@H](CCN2C(=O)c2ccccc2F)[C@H](CO)N3)cc1
    i, -2.1, -0.1, -1.1
> COc1cccc(C2NC(=S)N(Cc3ccc(F)cc3)C(C)=C2C(C)=O)c1 (stereo not drawn)
    i, -21.2, -37.6, -3.3
> Cc1noc(C)c1S(=O)(=O)Nc1ccc2c(c1)CC(=O)N([C@H](C)CO)C[C@@H](C)[C@H](CN(C)C(=O)Nc1ccc(F)cc1)O2
    i, 7.9, 5.7, 0.5
> CO[C@@H]1CN(C)C(=O)c2ccc(NC(=O)Nc3ccccc3F)cc2OC[C@@H](C)N(C)C[C@H]1C
    i, -0.4, 5.0, 1.2
> Cc1ccc(S(=O)(=O)N(C)C[C@@H]2Oc3cc(C#CC4CCCC4)ccc3S(=O)(=O)N([C@H](C)CO)C[C@H]2C)cc1
    i, 7.3, 18.8, -2.8
> COc1ccccc1C#Cc1ccc2c(c1)O[C@@H](CN(C)Cc1cccnc1)[C@@H](C)CN([C@@H](C)CO)S2(=O)=O
    i, -5.7, -2.9, 10.9
> CCCC#Cc1ccc([C@@H]2[C@@H](CO)N3CCCCN(Cc4cncnc4)C[C@@H]23)cc1
    i, 5.5, 8.3, -1.1
> COc1ccc(CN(C)C[C@@H]2Oc3ccc(NC(=O)Nc4cccc5ccccc45)cc3CC(=O)N([C@@H](C)CO)C[C@@H]2C)cc1
    i, -1.0, -8.5, 18.5
> O=C(NCC[C@@H]1CC[C@@H](NC(=O)C2CC2)[C@H](CO)O1)c1ccc(F)cc1
    i, 1.2, 8.8, 1.5
> C[C@@H]1CN([C@H](C)CO)C(=O)c2cc(C#C[C@@H](C)O)cnc2O[C@H]1CN(C)C(=O)CN(C)C
    i, 11.6, 28.7, -2.9
> C[C@@H]1CCCCO[C@@H](CN(C)Cc2ccncc2)[C@H](C)CN([C@@H](C)CO)C(=O)c2cc(NC(=O)c3ccccc3)ccc2O1
    i, -9.4, -7.1, 2.2

# The list continues.
# Below each compound: FGF22 binding, Ecoli rRNA inh, Ecoli rRNA inh OD600, Ecoli rRNA inh RFP
> C[C@H]1CN([C@@H](C)CO)S(=O)(=O)c2ccc(C#CC3CCCC3)cc2O[C@H]1CN(C)Cc1cccnc1
    i, -26.3, -38.4, 32.0
> CO[C@H]1CN(C)C(=O)c2cc(NC(C)=O)ccc2OC[C@H](C)N(S(C)(=O)=O)C[C@H]1C
    i, 0.7, 5.4, -0.1
> C[C@@H]1CN([C@@H](C)CO)C(=O)CCCn2cc(nn2)CO[C@H]1CN(C)C(=O)Nc1ccc(F)cc1
    i, -0.6&15.8, 1.9&14.1, -0.1&3.2
> COc1cccc(C(=O)N2C[C@H]3[C@@H](c4ccccc42)[C@@H](CO)N3C(=O)c2cccc(F)c2)c1
    i, 0.2, -0.2, 3.1
> CC(=O)N1[C@H](CO)[C@@H](c2ccccc2)[C@@H]1CN(CC1CCC1)C(=O)CN(C)C
    i, 1.2, 4.3, -2.3
> Cc1ccc(-c2ccc3c(c2)O[C@@H](CN(C)C(=O)C2CCC2)[C@@H](C)CN([C@H](C)CO)S3(=O)=O)cc1
    i, -5.1, -28.3, 7.7
> Cc1noc(C)c1NC(=O)N(C)C[C@@H]1Oc2ccc(NS(=O)(=O)c3cccs3)cc2CC(=O)N([C@@H](C)CO)C[C@H]1C
    i, 2.1, 4.7, -4.3
> O=C(c1ccccc1F)N1CC[C@H]2[C@H](CO)Nc3ccc(-c4ccc(F)cc4)cc3[C@H]21
    i, -51.8, -74.2, -8.1
> O=C(NCC1CC1)[C@@H]1[C@@H](CO)[C@@H]2Cn3c(ccc(-c4ccncc4)c3=O)[C@H]1N2Cc1nccs1
    i, 3.0, 4.9, -1.8

# From PubChem

# An excerpt; rates above refer to the full screens.
